NPYLR7 ag: mosquito NPYLR7 agonism. HEK293T NPYLR7/Galpha15, GCaMP6s calcium fluorescence. 270,000 compounds, 0.15% hits. activation, % at 10 µM; in the data active = activation above about 40%;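 note: 0% = vehicle and 100% = reference agonist at the receptor; some compounds past the cut are filed as inactive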
NPYLR7 ag max-min: further read-out of NPYLR7 ag, marked with its call; activation, %; measured here: Max-Min RFU normalised activation; some inactives read as strong as hits;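 span of the calcium signal over five minutes; 0% = vehicle and 100% = native peptide agonist; compound fluorescence can raise it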
* hit, by the source's call. These rows are one share of the data. The share of hits here may be higher or lower than overall.

SMILES	NPYLR7 ag	NPYLR7 ag max-min
COc1ccccc1Oc1ncccc1CNC(=O)c1ocnc1C	3	2
Cc1ccccc1NC(=O)c1ccc(-n2nc(-c3cccc(C(F)(F)F)c3)cc2N)cc1	-9	-13
Cc1cc(Cl)c2oc(C(=O)NCCCn3nnc4ccccc43)c(C)c2c1	8	7
Cc1ccc(C)c(Cn2c(=O)c3c(nc4n(CCO)c(C)cn34)n(C)c2=O)c1	-7	-7
O=C(NCCc1cccnc1)c1ccc(SCc2ccccc2)nc1	21	5
COc1cc(NS(C)(=O)=O)ccc1Cc1c2ccccc2nc2ccccc12	-6	-15
CC(=O)c1cccc(Nc2nccc3[nH]c(-c4ccccc4)cc23)c1	2	-11
O=C(NCc1ccccc1F)N1CCN(C(c2ccccc2)c2ccc(Cl)cc2)CC1 (centres undefined)	35	36
N#Cc1cc(NCC2(O)CCOCC2)nc2ccc(Cl)cc12	0	-2
Clc1ccc(C2=NOC(CNCc3cccc(Cl)c3)C2)cc1 (centres undefined)	-1	-8
O=C(Cn1c(=O)oc2ccccc21)N1CCCCC1CCn1cccn1 (centres undefined)	7	3
Fc1ccc(Nc2nc(-c3cccs3)nc3cc(Cl)ccc23)cc1	-3	8
CNC(=O)N1CCN(S(=O)(=O)c2cc(OC)c(OC)cc2C)CC1	4	1
Cc1cc(N2CCCC2C(=O)Nc2nc3ccccc3s2)nc(C)n1 (centres undefined)	-2	-3
Cc1cc(=O)[nH]c(NN=Cc2ccc(F)c(F)c2)n1	3	5
CCC(Sc1ccccc1)C(=O)Nc1nc(C)ncc1C#N (centres undefined)	3	0
O=C(NCC1(c2ccc(Cl)cc2Cl)CCOCC1)c1cnsn1	20	15
CC(C)C(C(=O)O)N1C(=O)C2C3CCC(C3)C2C1=O (centres undefined)	3	0
CC1CCN(c2ccc(NC(=O)c3ccc(Cl)cc3Cl)cc2C(=O)NCc2ccc(F)cc2)CC1	1	5
O=C(O)c1cn(Cc2ccc(F)cc2)nc1OCc1ccc(F)cc1	-2	-5
CN(Cc1nc2ccccc2c(=O)[nH]1)c1ccc(C#N)cn1	5	5
COC(=O)c1scc(-c2ccccc2)c1S(=O)(=O)N1CCCC1	-3	-11
Cc1ccc(N(CCCN2C(=O)c3cccc4cccc(c34)C2=O)C(=O)c2cccc([N+](=O)[O-])c2)cc1	0	-7
C#CCn1c(=NC(=O)c2ccn(C)n2)sc2cc(C(=O)OC)ccc21	0	5
CC(C)S(=O)(=O)Nc1ccc2c(c1)C(=O)N(C)c1ccccc1O2	-1	-1
Cc1cnn(CC2CCCCN2C(=O)c2c(C)nn3cccnc23)c1 (centres undefined)	6	2
Nc1n[nH]c(CCCc2nc(N)n[nH]2)n1	-13	-25
CCC(O)CN(Cc1ccsc1)Cc1ccco1 (centres undefined)	-1	11
O=C(c1cccc(Br)c1)N(Cc1csc(COc2cccc3ccccc23)n1)C1CC1	13	12
CC(C)OC1CCc2cc(Br)ccc21 (centres undefined)	0	-3
COc1cccc(N2C(=O)C3C4C=CC(C5CC45)C3C2=O)c1 (centres undefined)	4	3
COc1ccc(-n2c(-c3ccccc3)cc(C(=O)N3CCN(C(=O)c4ccc([N+](=O)[O-])cc4)CC3)c2C)cc1OC	-2	7
N#CCc1c(C#N)c(N)nc(Nc2ccc(SC(F)F)cc2)c1C#N	-1	2
CN(CCOc1ccc(Br)cc1)C(=O)CN1C(=O)NC2(CCc3ccccc32)C1=O (centres undefined)	14	19
O=c1cccc(-c2cccc3cccnc23)[nH]1	19	5
Cc1nc(C(C)N(C)Cc2cccn2-c2nccs2)c(C)s1 (centres undefined)	1	-1
CC(C)Oc1ccc(NC(=O)CSc2nc3ccccc3s2)cc1	-5	-5
COc1ccc(C(=O)Nc2cc(C)nn2-c2ncnc3c2cnn3-c2cccc(C)c2C)cc1	1	-1
CC(C)Oc1cc(N(C)Cc2nncn2C(C)C)nc(N)n1	-5	-10
C=CCN(CC(=O)N(Cc1cccn1C)CC(C)C)C(=O)Nc1ccc(CC)cc1	-15	-12
C=CCOCC(O)CN(CCC(C)C)Cc1cccc(OC)c1 (centres undefined)	-7	-5
CCc1nc2ccc(C(=O)NCCCn3ccnc3)cn2c1N(C)Cc1nccs1	-8	-8
Cc1ncc2c(c1CNC(=O)c1cn(CC3CCCCC3)nn1)CCNC2	2	-3
CCCCCCCc1c(C#N)c(N)[nH]c(=S)c1C#N	-3	-4
CSc1ccc(CNC(=O)C2(C)CCCN(C(C)C)C2)cc1 (centres undefined)	0	0
Cc1nc(-c2ccccc2)sc1C(=O)NCCOc1ccc(-c2ccc(F)cc2)nn1	-2	-3
Cc1ccc(C(=O)N2CCC(CCC(=O)NCc3cccc(Cl)c3)CC2)cn1	12	1
Cc1noc(C2CCCN(c3nc(C(C)(C)C)nc(C)c3C)C2)n1 (centres undefined)	3	2
O=C(c1ccsc1)N1CCC2(CCCN(Cc3cccc(F)c3F)C2=O)C1 (centres undefined)	4	-1
CCOCCOc1nc(-c2ccc3c(c2)OCO3)n(-c2ccc(NC(=O)c3ccc([N+](=O)[O-])cc3Cl)cc2)n1	6	7
Cc1ccc(CNc2ccc3c(c2)ncn3C)cc1	12	12
Cc1cc(NC(=O)C2CCN(C(C)c3cccnc3)CC2)no1 (centres undefined)	4	0
CCCN(Cc1nccn1C)C(=O)c1cc(C)c(C)c(S(N)(=O)=O)c1	-6	-15
Cc1ccc(NC(=O)c2cccc(N(C)C)c2)cc1NC(=O)c1ccc(O)cc1	-8	-11
c1cncc(CNc2cc(-c3cnc4ccccc4c3)c3cc[nH]c3n2)c1	1	-5
C=C(C)Cn1c(NCCO)nc2c1c(=O)[nH]c(=O)n2C	14	7
CC(C)(C)S(=O)CCNCc1ccccc1C(F)(F)F (centres undefined)	5	4
O=C(CCC1CCN(C(=O)C2CCOCC2)CC1)N1CCC(Cc2ccccc2)CC1	19	8
Cc1nc(-c2cnccn2)sc1C(=O)N1CCC2(CCNC2=O)CC1	7	9
C/C=C(\C)C(=O)N1CCc2cc(OC)c(OC)cc2C1c1c(F)cccc1Cl (centres undefined)	13	3

Already shown: an excerpt of the list.
SMILES	NPYLR7 ag	NPYLR7 ag max-min
Cc1cc(=O)[nH]c(NN=Cc2ccc(F)c(F)c2)n1	3	5
CCC(Sc1ccccc1)C(=O)Nc1nc(C)ncc1C#N (centres undefined)	3	0
O=C(NCC1(c2ccc(Cl)cc2Cl)CCOCC1)c1cnsn1	20	15
CC(C)C(C(=O)O)N1C(=O)C2C3CCC(C3)C2C1=O (centres undefined)	3	0
CC1CCN(c2ccc(NC(=O)c3ccc(Cl)cc3Cl)cc2C(=O)NCc2ccc(F)cc2)CC1	1	5
O=C(O)c1cn(Cc2ccc(F)cc2)nc1OCc1ccc(F)cc1	-2	-5
CN(Cc1nc2ccccc2c(=O)[nH]1)c1ccc(C#N)cn1	5	5
COC(=O)c1scc(-c2ccccc2)c1S(=O)(=O)N1CCCC1	-3	-11
Cc1ccc(N(CCCN2C(=O)c3cccc4cccc(c34)C2=O)C(=O)c2cccc([N+](=O)[O-])c2)cc1	0	-7
C#CCn1c(=NC(=O)c2ccn(C)n2)sc2cc(C(=O)OC)ccc21	0	5
CC(C)S(=O)(=O)Nc1ccc2c(c1)C(=O)N(C)c1ccccc1O2	-1	-1
Cc1cnn(CC2CCCCN2C(=O)c2c(C)nn3cccnc23)c1 (centres undefined)	6	2
Nc1n[nH]c(CCCc2nc(N)n[nH]2)n1	-13	-25
CCC(O)CN(Cc1ccsc1)Cc1ccco1 (centres undefined)	-1	11
O=C(c1cccc(Br)c1)N(Cc1csc(COc2cccc3ccccc23)n1)C1CC1	13	12
CC(C)OC1CCc2cc(Br)ccc21 (centres undefined)	0	-3
COc1cccc(N2C(=O)C3C4C=CC(C5CC45)C3C2=O)c1 (centres undefined)	4	3
COc1ccc(-n2c(-c3ccccc3)cc(C(=O)N3CCN(C(=O)c4ccc([N+](=O)[O-])cc4)CC3)c2C)cc1OC	-2	7
N#CCc1c(C#N)c(N)nc(Nc2ccc(SC(F)F)cc2)c1C#N	-1	2

Next compounds follow.
SMILES	NPYLR7 ag	NPYLR7 ag max-min
Cc1ccc(C)c(N(CCCC(=O)NCCN(C)C)S(C)(=O)=O)c1	-3	-15
CCCNC(=O)C1(C)CCCN(Cc2cccc(Cl)c2)C1 (centres undefined)	-8	-7
C=C(C)C(O)(C(=C)C)c1ccc(CN(Cc2cccc(OC)c2)Cc2ccco2)o1	0	6
CC(=O)N1c2ccc(S(=O)(=O)N(C)Cc3ccc(N4CCOCC4)cc3)cc2CC1C (centres undefined)	3	2
CCc1ccc(O)c(C(=O)c2cnc3c(c2)CN(CCC(C)C)C(=O)N3)c1	8	6
COc1cc(-c2cc(C(=O)NC(C)c3ccccc3)c3ccccc3n2)cc(OC)c1OC (centres undefined)	2	0
CC(C)Cc1cc(-c2nccn2[C@@H](C)C(N)=O)n[nH]1	16	7
CCOc1ccc(C(=O)NC(C(=O)N2CCN(Cc3ccco3)CC2)C(C)C)cc1 (centres undefined)	0	12
CC1(C(=O)Nc2ccc3nc[nH]c3c2)CCN1C(=O)C/C=C/c1ccccc1 (centres undefined)	16	18
CCOC(=O)[C@@H]1[C@@H](O)C(=O)N(C)C12CCN(C(=O)c1ccc(C(F)(F)F)cc1)CC2	9	13
COc1cc(Nc2nccc3c2cc(-c2ccc(C(=O)N(C)C)cc2)n3C)cc(OC)c1OC	2	-7
COC(=O)Cn1c(=NC(=O)c2ccccc2[N+](=O)[O-])sc2cc3c(cc21)OCCO3	3	1
CC(C)(CN=Cc1c(O)[nH]c(=O)[nH]c1=O)N1CCOCC1	8	3
C/C=C(\C)CN1CCN(CCOCCO)CC1	2	0
CN(CCc1ccccn1)[C@H]1[C@@H]2OC[C@@H](O2)[C@@H](N(Cc2ccccc2O)Cc2ccccc2O)[C@@H]1O	-8	-12
COc1ccc(C2CC(=O)C3C(=Nc4ccccc4NC3c3cccc4ccccc34)C2)cc1 (centres undefined)	-7	-11
Cc1ccc(CNC(=O)Nc2ccc(N3CCCC3)nc2)n1C	1	0
CCOc1ccc(NC(=O)c2n[nH]nc2Nc2ccc(OC)cc2)cc1	0	-3
Cn1ccsc1=NC(=O)CCNC(=O)c1ccc2ccccc2c1	-6	-6
Cc1ccc(NC(=O)CC(=O)N(C)CCN2CCCCCC2)c(C)c1	10	7

3 entries from above, with two lines to a compound:
The line under a structure holds: NPYLR7 ag	NPYLR7 ag max-min
> COc1ccc(C2CC(=O)C3C(=Nc4ccccc4NC3c3cccc4ccccc34)C2)cc1 (centres undefined)
 : -7	-11
> COc1cc(Nc2nccc3c2cc(-c2ccc(C(=O)N(C)C)cc2)n3C)cc(OC)c1OC
 : 2	-7
> C/C=C(\C)CN1CCN(CCOCCO)CC1
 : 2	0

Going on with the list:
SMILES	NPYLR7 ag	NPYLR7 ag max-min
CCOc1cc(C(=O)OCN2C(=O)c3ccccc3C2=O)cc(Br)c1OC	4	11
CC(NC(=O)CSC(C)(C)C)c1ccc(OCC(N)=O)cc1 (centres undefined)	0	92
COc1ccccc1N=Nc1c(-c2ccccc2)[nH]n(-c2ccccc2)c1=O	9	-2
CC1(C)O[C@@H]2C[C@@](OCc3cccc(C(F)(F)F)c3)(C(=O)NCCCn3ccnc3)CC(OCc3ccc(F)cc3)[C@@H]2O1 (some centres undefined)	7	-7
O=C(CNC(=O)C12CC3CC(CC(C3)C1)C2)NCc1cc2ccccc2[nH]1	4	2
CCc1nc2c(OCCOC)cccn2c1N(C)C(=O)C(C)C	2	9
COC(=O)c1cc2n(n1)CCN(C(=O)CCN1Cc3ccccc3C1)C2	1	-1
CC(C)N1CCC(C)(C(=O)Nc2ccc(-n3cncn3)cc2)C1 (centres undefined)	2	2
CON1C(=O)c2ccccc2NC12CCN(S(=O)(=O)Cc1ccccc1)CC2	0	11
CCCN1CCN(c2nc3c(c(=O)[nH]c(=O)n3C)n2CCCc2ccccc2)CC1	1	0
NC(c1cccs1)C1CCCC1 (centres undefined)	4	2
Cc1nn(-c2ccc(C(C)(C)C)cc2)c(C)c1CCC(=O)NC1CCOC1=O (centres undefined)	-6	-12
COc1ccc(C(=O)N(Cc2c(-c3ccccc3F)noc2N2CCOCC2)CC2CCCO2)cc1 (centres undefined)	10	15
COCC(=O)Nc1c2c(nn1CC(=O)NCc1ccccc1)CSC2	-5	3
CCOC(=O)C1(C)CCN1C(=O)c1ccccc1C (centres undefined)	5	4
COc1c2c(c(OC)c3occc13)OC1(CCN(CC(=O)Nc3ccc(F)cc3)CC1)CC2=O	9	4

High-throughput results (PubChem)
